Assay outcomes: PubChem BioAssay, several laboratories
Ecoli rRNA inh: inhibitors of bacterial rRNA selective over humanized ribosomes; hit rate 1.6% among 350,000; GFP signal change (wild-type ribosome), % (test concentration not listed); E. coli WT GFP vs humanized-ribosome RFP mutants, fluorescence, 24 h; active compounds read low; DMSO median 0, no signal -100;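 active = significant combined selectivity score with lowered wild-type GFP, culture density cut under 30%, mutant RFP and density less affected; inactive = any of these conditions unmet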; note: one replicate is shown; some compounds called inactive have numbers as strong as hits
Ecoli growth: E. coli growth inhibition | Escherichia coli growth, OD600, 23 h; active compounds read low | OD600 absorbance (test concentration not listed) | hit rate 0.21% among 330,000;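 active = OD600 absorbance below the run mean of sample wells minus 3.6 SD, in any replicate, cut at about 0.56 in these data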;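 note: stock transfer was 300 nL into about 60 µL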
MLL AF4-AF9 inh: inhibitors of human MLL-AF4/AF9 interaction; P42568; AlphaScreen, biotin-AF4 peptide binding to FLAG-AF9; inhibition, % at 10 µM; hit rate 0.47% among 350,000; AID 651704;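 active = every replicate reaching a set inhibition limit, whatever the replicate mean, cut at about 25% in these data; inconclusive = mean inhibition reaches that limit but some replicates miss it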;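 note: 0% = plate neutral control median and 100% = total signal loss; the record names both 10 and 1 µM as test concentration; the first replicate is given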
Target sequence (P42568 whole entry, looked up): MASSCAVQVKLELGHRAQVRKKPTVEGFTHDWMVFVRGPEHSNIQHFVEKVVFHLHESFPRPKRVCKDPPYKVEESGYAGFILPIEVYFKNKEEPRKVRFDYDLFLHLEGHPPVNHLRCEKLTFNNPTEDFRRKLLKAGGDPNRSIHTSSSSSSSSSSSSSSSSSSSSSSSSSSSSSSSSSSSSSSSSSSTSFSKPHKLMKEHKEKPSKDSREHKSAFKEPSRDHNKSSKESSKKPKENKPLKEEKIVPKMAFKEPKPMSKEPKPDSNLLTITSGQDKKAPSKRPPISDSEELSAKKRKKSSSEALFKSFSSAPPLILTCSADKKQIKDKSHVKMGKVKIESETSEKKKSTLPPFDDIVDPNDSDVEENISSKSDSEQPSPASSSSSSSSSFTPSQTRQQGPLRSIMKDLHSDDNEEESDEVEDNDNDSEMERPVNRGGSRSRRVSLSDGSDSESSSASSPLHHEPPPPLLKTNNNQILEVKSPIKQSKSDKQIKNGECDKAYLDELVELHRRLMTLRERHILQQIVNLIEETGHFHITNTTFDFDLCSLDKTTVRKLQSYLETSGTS
FGF22 binding: FGF22 (human) thermal shift binding; recombinant FGF22 thermal shift, SYPRO orange fluorescence; percent of sucrose octasulfate shift, DMSO zero; calls only at 9.99 µM; hit rate 1.5% among 340,000; AID 651658;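 active = melting point raised past a set limit in the mean and every replicate; inconclusive = no clear call; three in four hits are not shown here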
Target sequence (Q9HCT0 whole entry, looked up): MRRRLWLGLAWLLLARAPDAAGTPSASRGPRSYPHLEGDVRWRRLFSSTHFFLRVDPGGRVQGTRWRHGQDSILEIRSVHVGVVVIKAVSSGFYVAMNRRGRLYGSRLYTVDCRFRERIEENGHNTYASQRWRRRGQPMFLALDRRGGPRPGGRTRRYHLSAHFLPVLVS
ALR inh: blocks human ALR sulfhydryl oxidase activity. P55789. purified ALR, DTT oxidation, H2O2 HRP-luminol luminescence. inhibition, % (no concentration beside the values). hit rate 3.8% among 290,000. AID 485317;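 active = mean and each replicate at 75% or more; inconclusive = only one of the two met; inactive = neither met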;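 note: stock transfer was 7.5 nL into about 7.5 µL; 0% = neutral wells and 100% = wells with inactivated enzyme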
Target sequence (P55789 whole entry, looked up): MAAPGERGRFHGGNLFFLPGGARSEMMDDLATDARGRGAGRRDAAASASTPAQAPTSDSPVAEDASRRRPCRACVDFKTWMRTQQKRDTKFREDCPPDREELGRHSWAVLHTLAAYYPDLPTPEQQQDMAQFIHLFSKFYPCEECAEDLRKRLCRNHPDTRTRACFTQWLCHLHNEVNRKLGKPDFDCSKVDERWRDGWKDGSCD
HNF4A DNA FP: change in binding of human HNF4 alpha to DNA | HNF4a-FITC DNA binding, fluorescence polarization, 1 h | hit rate 0.3% among 360,000 | AID 1224865 | activity change, % at 10 µM | P41235; in the data active = activity change above about 30%, passing the limit was not always enough;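 note: controls were the assay level and a saturating level of protein; the project sought stronger binding though the title names inhibitors; some compounds called inactive have numbers as strong as hits; positive values seem to mean higher polarization but the record does not say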
Vif A3G: HIV-1 Vif–A3G interaction blockers – biochemical, TR-FRET, GST-Vif 1-94, biotin-A3G peptide, dose response retest, primary screen (AID 1117319) | hit rate 0.57% among 260,000 | TR-FRET GST-Vif / biotin-A3G peptide binding; higher % means a stronger effect; test concentration not given here; strong numbers were not always called active | inhibition, %; hits with a dose series show IC50 in µM;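 active = above the screen mean plus three standard deviations and confirmed in dose response; inconclusive = results disagree or hit not tested in dose response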;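 note: Vif residues 1-94 fused to GST binding biotinylated APOBEC3G peptide 110-148; 0% = full assay without inhibitor and 100% = GST in place of GST-Vif; retest series ran down from 100 µM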
Ecoli rRNA inh OD600: further read-out of Ecoli rRNA inh, marked with its call; OD600 change, %; measured here: OD600 growth;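 optical density of the mix in the first replicate; 0 = DMSO median and -100 = no signal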
Ecoli rRNA inh RFP: also measured in Ecoli rRNA inh; calls as there; RFP signal change, %; measured here: RFP humanized mutant strains;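 first replicate; 0 = DMSO median and -100 = no signal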
An asterisk follows results filed as active; i = inactive; ? = inconclusive; / = no result given; & = joins results of further samples. This is a subset; the hit share may differ from the screen's.

SMILES	Ecoli rRNA inh	Ecoli rRNA inh OD600	Ecoli rRNA inh RFP	Ecoli growth	MLL AF4-AF9 inh	FGF22 binding	ALR inh	HNF4A DNA FP	Vif A3G
Cc1ccccc1N1CCN(S(=O)(=O)CC23CCC(CC2=O)C3(C)C)CC1 (centres undefined)	3	2	-1.1	0.7	5.8	i	3	1.0	-4%
Cc1nc(SCC(=O)CC(=O)OC(C)C)c(C#N)c(C)c1C	/	/	/	0.74	/	/	47	2.2	-4%
CCCn1c(SCC(=O)c2ccc3c(c2)OCCO3)nc2c1c(=O)n(C)c(=O)n2C	/	/	/	0.68	/	/	/	0.5	1%&15%
COc1nn(-c2ccccc2)c(=O)c(Cl)c1Cl	-6	13	5.6	0.65	-5.7	i	13	-0.7	/
CN(C)N=C1c2cc(S(=O)(=O)N(C)C)ccc2-c2ccc(S(=O)(=O)N(C)C)cc21	9	13	1.8	0.71	-2.3	i	-4	-0.4	/
CN(C1CCCCC1)C(CNS(=O)(=O)c1ccc(Cl)cc1)c1ccccc1 (centres undefined)	4	29	-1.8	0.72	-14	i	-1	-2.5	/
Cc1ccc(S(=O)(=O)N2CC(=O)Nc3ccccc32)c(C)c1NS(C)(=O)=O	5	8	1.4	0.7	-1.4	i	0	0.8	1%
O=C(NCc1ccccc1)[C@@H]1CCCN1C(=O)[C@H]1CCCN1C(=O)c1cccc(F)c1	13	6	-2.3	/	-1.2	i	/	/	/
CCOc1ccc(NC(=O)c2c(NC(=O)CN3CCCC3)sc3c2CCC3)cc1	8	4	1.2	0.74	-1.1	i	-10	-1.2	-2%
COc1ccc2oc(C(=O)OC(C)C(=O)N(C)c3ccccc3)c(C)c2c1 (centres undefined)	-17	-16	-0.9	0.69	-2.2	i	3	0.5	2%
Cc1ccc(N(CC(=O)NC2CC2)S(=O)(=O)c2ccccc2)c(C)c1	6	1	3.4	0.71	-5.0	i	-8	-4.0	0%
CC(=O)c1ccc(NC(=O)Cc2cccs2)cc1	2	2	-1.8	0.71	2.6	/	-7	-4.1	/
Cc1noc(C)c1NC(=O)N(C)C[C@H]1Oc2c(NC(=O)NC3CCCCC3)cccc2C(=O)N([C@H](C)CO)C[C@@H]1C	4	5	0.6	/	-0.2	i	/	/	/
COc1ccc(CCCNC(=O)C2(C)Cc3c(-c4ccc(C(N)=O)cc4)ccnc3O2)cc1 (centres undefined)	-7	-20	-3.2	/	0.6	i	/	-3.3	/
CC1CCCC(NC(=O)COC(=O)[C@@H](NC(=O)c2ccccc2Cl)C(C)C)C1C (some centres undefined)	-1	3	-1.4	0.63	?	i	-3	-1.3	/
COc1ccc(S(=O)(=O)N(c2onc(C)c2Cl)S(=O)(=O)c2ccc(OC)c(OC)c2)cc1OC	/	/	/	0.7	/	/	-34	0.7	-1%
O=C(Nc1ccccc1)Nc1nnc(-c2ccccc2)s1	7	16	3.2	0.68	-4.2	i	-5	-0.1	33%
Cn1nnc2cc(C(=O)N3CCCCCC3)ccc21	/	/	/	0.69	/	/	/	3.3	19%
COc1ccccc1-c1nnc(SC2CCc3ccccc3NC2=O)s1 (centres undefined)	/	/	/	0.73	/	/	-11	-0.9	8%
CCC(=O)N1CCCc2cc(S(=O)(=O)N3CCN(C4CCCCC4)CC3)ccc21	/	/	/	0.7	/	/	-21	-0.5	0%
CCNC(=O)c1c(O)c2ccccc2[nH]c1=O	/	/	/	0.7	/	/	-5	1.2	-2%
COc1ccc(NC(=O)N2CCCC2C(=O)Nc2ccc(C)cc2)cc1 (centres undefined)	/	/	/	0.62	/	/	-12	0.2	0%
COc1cccc(C2CC(=O)NC3=C2C(=O)CCC3)c1 (centres undefined)	/	/	/	0.69	/	/	-3	-1.2	1%
COc1ccc(NC(=O)Nc2ccc3c(c2)C(=O)N([C@@H](C)CO)C[C@H](C)[C@H](CN(C)C(=O)Nc2ccc(C(F)(F)F)cc2)OCCCC[C@H](C)O3)cc1	2	-1	-1.8	/	-11	i	/	/	/
Cc1ccc(-n2c(O)c(/C=C3/C(c4ccccc4)=Nc4ccccc43)c(=O)[nH]c2=O)cc1	/	/	/	0.65	/	/	98*	4.2	23%
C[C@H]1CN([C@@H](C)CO)C(=O)c2cc(NS(=O)(=O)c3ccc(F)cc3)ccc2O[C@@H]1CN(C)C(=O)Nc1ccccc1	0	-4	0.2	/	-0.5	i	/	/	/
CCOc1ccc(-n2c(SCC(=O)Nc3ccc(C(=O)O)cc3)nc3ccccc3c2=O)cc1	-6	-16	-2.7	0.66	0.1	i	/	-3.6	-1%
COc1cc(-c2nnc(NC(=O)CS(=O)(=O)c3ccc(F)cc3)o2)cc(OC)c1OC	2	2	1.0	0.7	-1.2	i	/	-0.8	-5%
N#Cc1cccc(-c2ccc3c(c2)[C@H]2[C@H](CCN2S(=O)(=O)c2cccc(F)c2)[C@H](CO)N3)c1	-14	-7	10	/	-4.3	i	/	/	/
CN1CCN(c2ccc(NC(=S)NC(=O)/C=C/c3ccco3)cc2)CC1	-10	-16	-0.9	0.64	2.3	/	81*	-2.3	/
Cc1ccc(C(=O)O)cc1NC(=O)Nc1ccc2c(c1)OCO2	18	19	-2.6	0.72	-3.7	i	-8	3.1	?
O=C(NCc1ccco1)c1ccc2snnc2c1	/	/	/	0.68	/	/	-7	-0.5	66%
Cc1ccccc1OCCC(=O)OCC(=O)N1c2ccccc2NC(=O)C1(C)C	5	-2	-1.0	/	-1.7	i	2	-6.8	/
CCOC(=O)C1=C(O)/C(=C/c2ccc(-c3ccccc3C(=O)O)o2)SC1=Nc1ccc(C)cc1	-1	-4	17	/	-7.9	i	/	58*	/
COc1ccc(NC(=O)c2cccc(NC(=O)c3ccccc3)c2)c(OC)c1	4	6	-2.3	0.65	1.1	i	1	0.2	/
C=CCc1cccc2cc(C(=O)N3CCN(C(=O)OCC)CC3)c(=O)oc12	/	/	/	0.66	/	/	15	-3.5	3%
CCn1c(SCC(=O)NCc2cccs2)nnc1-c1cccs1	5	0	-2.8	0.74	-2.4	i	6	-3.6	2%
O=C(Nc1ccc2ccccc2c1)C(=O)C1C(=O)Nc2ccccc21 (centres undefined)	1	9	-0.3	0.67	4.6	i	-6	/	/
COCc1c(C(=O)OC)nnn1-c1ccc(C(F)(F)F)cc1[N+](=O)[O-]	5	-2	1.3	0.71	2.6	i	-49	-2.8	-6%
CCCCNC(=O)C1(C)CCN1C(=O)c1ccccc1Br (centres undefined)	2	6	-4.0	/	0.1	i	/	3.0	/

Reprinted at random: 2 records from the list, in no set order.
SMILES	Ecoli rRNA inh	Ecoli rRNA inh OD600	Ecoli rRNA inh RFP	Ecoli growth	MLL AF4-AF9 inh	FGF22 binding	ALR inh	HNF4A DNA FP	Vif A3G
COc1ccc(NC(=O)Nc2ccc3c(c2)C(=O)N([C@@H](C)CO)C[C@H](C)[C@H](CN(C)C(=O)Nc2ccc(C(F)(F)F)cc2)OCCCC[C@H](C)O3)cc1	2	-1	-1.8	/	-11	i	/	/	/
COc1ccc(NC(=O)N2CCCC2C(=O)Nc2ccc(C)cc2)cc1 (centres undefined)	/	/	/	0.62	/	/	-12	0.2	0%

Remaining list, next part
SMILES	Ecoli rRNA inh	Ecoli rRNA inh OD600	Ecoli rRNA inh RFP	Ecoli growth	MLL AF4-AF9 inh	FGF22 binding	ALR inh	HNF4A DNA FP	Vif A3G
Cc1ccc(CN(C)Cc2cc(=O)oc3cc(C)c(Cl)cc23)cc1	5	-3	-9.8	0.7	0.7	i	-7	2.7	-10%
C[C@@H]1CN([C@H](C)CO)C(=O)c2cc(NC(=O)CCCN(C)C)ccc2O[C@@H](C)CCCCO[C@H]1CN(C)Cc1ccc2c(c1)OCO2	2	1	-2.4	/	2.5	i	/	/	/
c1ccc(CSc2snnc2-c2ccccc2)cc1	/	/	/	0.72	/	/	-9	-0.7	?
C[C@H]1CN([C@@H](C)CO)S(=O)(=O)c2ccc(C#CCN(C)C)cc2O[C@@H]1CN(C)Cc1ccccc1	-17	-13	0.1	/	11	i	/	/	/
Cc1cc(NC(=O)COC(=O)c2n[nH]c3ccccc23)no1	/	/	/	0.7	/	/	0	-0.4	-4%
COc1ccc(/C(N)=N/OC(=O)CC2CCCCC2)cc1OC	-8	-7	-2.0	0.71	0.2	i	3	2.1	-3%
C[C@H](CO)N1C[C@H](C)[C@H](CN(C)C(=O)Nc2ccc(F)cc2)Oc2c(NS(C)(=O)=O)cccc2C1=O	-1	2	0.3	/	-2.8	i	/	/	/
CC(Sc1ccccc1F)C(=O)Nc1cccc(S(=O)(=O)N2CCOCC2)c1 (centres undefined)	-6	-11	-1.7	0.71	0.7	i	-4	0.8	/
CN(C)c1ccc(NS(=O)(=O)c2cc3c4c(c2)CC(=O)N4CCC3)cc1	-3	16	-0.8	0.7	5.5	i	99*	3.7	/
Cc1cc(OC(C)C)nc(-c2ccccc2O)n1	/	/	/	0.69	/	/	-24	0.0	1%
CCOC(=O)[C@]12CCC=C1N(Cc1ccccc1)C(=O)[C@H](CC(=O)NCC1CCCCC1)C2	-13	-26	-0.2	/	-0.3	i	/	0.4	/
COCCCNC(=O)c1cc2c(-c3ccc(Cl)cc3)nn(C)c2s1	-16	-3	-11	0.74	-2.5	i	-23	-0.4	1%
O=C1CN(c2nnnn2-c2ccccc2)CCN1	/	/	/	0.71	/	/	-33	-0.4	-6%
COc1cc(/C=C2/C(=O)ON=C2C)cc(Cl)c1O	-5	2	-3.1	/	-3.0	i	91*	1.1	-10%
Cc1nc(C)c(C(=O)O)c(-c2cccs2)c1C(=O)O	25	5	-0.3	0.71	/	i	-3	-1.7	?
O=C(C[C@H]1C[C@@H]2c3cc(NS(=O)(=O)c4ccccc4)ccc3O[C@@H]2[C@H](CO)O1)NC1CCCC1	4&1	4&0	-1.2&3.0	/	-3.8&-1.8	i	/	5.3	7%
CCOC(=O)CNC(=S)N(Cc1ccccc1F)C1CCCCC1	-23	-39	0.3	0.69	-2.4	/	-6	3.7	-1%
CCC(C(=O)O)N1C(=O)/C(=C/C(C)=C/c2ccccc2)SC1=S (centres undefined)	-37	-47	-3.8	0.67	-1.2	i	30	-2.8	-3%
CCOC(=O)N/N=C(\CCC(=O)O)c1cccs1	5	4	0.7	/	?	i	-1	-1.3	?
Cc1noc(C)c1NC(=O)N(C)C[C@H]1Oc2ccc(NC(=O)Cn3cnnn3)cc2C(=O)N([C@H](C)CO)C[C@@H]1C	3&22	2&14	-2.2&4.7	0.72	-2.6&-0.2	i	/	-3.8	-5%
CCN(CC)CCN1C(=O)c2ccccc2NC1c1ccc(N(C)C)cc1 (centres undefined)	/	/	/	0.74	/	/	48	0.7	90µM*
CCN(CC)c1ccc(C2CC(=O)NC3=C2C(=O)CC(C)(C)C3)cc1 (centres undefined)	/	/	/	0.75	/	/	95*	-5.0	-18%
O=C(NC(=S)Nc1ccccc1C(=O)O)c1cncc(Br)c1	8	6	-1.4	0.63	-5.0	i	/	0.2	0%
CC1(C)Cc2cccc(OCC(=O)OCC(=O)NCc3ccc(F)cc3)c2O1	4	6	-2.0	0.71	-1.2	i	-3	2.5	-4%
COCC(=O)Nc1ccc2c(c1)C(=O)N(C)C[C@@H](OC)[C@H](C)CN(Cc1cncnc1)[C@@H](C)CO2	-1	4	-2.1	/	-2.0	i	/	/	/
C[C@@H]1CN([C@@H](C)CO)C(=O)Cc2cc(NC(=O)Nc3ccc(C(F)(F)F)cc3)ccc2O[C@H]1CN(C)C(=O)Nc1ccc(F)cc1	1	1	1.3	/	-0.6	i	/	/	/
COc1ccc(N(C)S(=O)(=O)c2ccc3c(c2)CC(C)N3C(=O)C2CC2)c(OC)c1 (centres undefined)	-15	-27	-3.4	0.66	5.2	i	-16	3.2	/
CCN(C(=O)COC(=O)c1ccc(O)cc1O)c1c(N)n(Cc2ccccc2)c(=O)[nH]c1=O	18	15	-0.4	0.66	-1.4	i	/	0.6	-17%
